Screening data as filed in PubChem.
rRNA inh HTS: selective bacterial rRNA inhibition in E. coli. AID 720706. GFP signal change (wild-type ribosome), % (no concentration beside the values). 350,000 tested, 1.6% active. E. coli WT GFP vs humanized-ribosome RFP mutants, fluorescence, 24 h; active compounds read low; DMSO median 0, no signal -100;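 active = significant combined selectivity score with lowered wild-type GFP, culture density cut under 30%, mutant RFP and density less affected; inactive = any of these conditions unmet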; note: one replicate is shown; some compounds called inactive have numbers as strong as hits
RanGTP-Impb inh: inhibitors of RanGTP-importin-beta interaction, primary screen, biochemical, FRET, CFP-Ran, YFP-importin-beta, homogeneous. cell-free CFP-Ran/YFP-importin-beta FRET ratio. inhibition, % (no concentration beside the values). 300,000 tested, 1.1% active. AID 2216;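 active = most replicates above 15%; inconclusive = exactly half above 15%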;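 note: 0% = DMSO wells and 100% = Ran loaded with GDP instead of GTP; wells of about 40 µL received 100 nL stock; the first replicate is given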
FGF22 binding: binders of recombinant human FGF22 by thermal shift. Q9HCT0. SYPRO orange fluorescence; percent of sucrose octasulfate shift, DMSO zero. calls only at 9.99 µM. 340,000 tested, 1.5% active. AID 651658;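 active = melting point raised past a set limit in the mean and every replicate; inconclusive = no clear call; three in four hits are not shown here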
Target sequence (Q9HCT0 whole entry, looked up): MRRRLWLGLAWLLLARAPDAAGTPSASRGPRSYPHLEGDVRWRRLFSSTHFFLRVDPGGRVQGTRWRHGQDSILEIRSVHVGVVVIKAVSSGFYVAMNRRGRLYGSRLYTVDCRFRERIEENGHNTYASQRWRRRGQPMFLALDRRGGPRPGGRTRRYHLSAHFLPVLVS
Calb FLC: affects C. albicans growth with fluconazole | AID 1979 | 300,000 tested, 0.57% active | C. albicans CaCi-2 (fluconazole-resistant clinical isolate) + fluconazole, Alamar Blue growth, 48 h | growth inhibition, % (no concentration beside the values);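 active = most replicates above 75%; inconclusive = exactly half above 75%; inactive = most below 75%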;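 note: all wells also contain fluconazole at 8 µg/ml as a sub-toxic cotreatment; 0% = median of DMSO wells and 100% = median of geldanamycin control wells; wells of about 8 µL received 7.5 nL stock; the first replicate is given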
T cruzi inh: T. cruzi replication inhibition; 300,000 tested, 1.4% active; inhibition, % (no concentration beside the values); T. cruzi beta-gal in NIH3T3, luminescence, 90 h;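 active = mean inhibition across valid replicates above about 55%, limit read from the data; inconclusive = mean below that limit but half or more replicates reach it; inactive = mean below it, under half of replicates reach it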;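 note: signal also drops with host cell toxicity which is not excluded here; 0% = plate median of DMSO wells and 100% = zero luminescence signal; higher percent means less beta-gal luminescence so fewer parasites; stock transfer was 50 nL into about 50 µL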
MLL AF4-AF9 inh: blocks AF4 peptide binding to human AF9; AID 651704; AlphaScreen, biotin-AF4 peptide binding to FLAG-AF9; 350,000 tested, 0.47% active; inhibition, % at 10 µM;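 active = every replicate reaching a set inhibition limit, whatever the replicate mean, cut at about 25% in these data; inconclusive = mean inhibition reaches that limit but some replicates miss it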;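 note: 0% = plate neutral control median and 100% = total signal loss; the record names both 10 and 1 µM as test concentration; the first replicate is given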
Target sequence (P42568 whole entry, looked up): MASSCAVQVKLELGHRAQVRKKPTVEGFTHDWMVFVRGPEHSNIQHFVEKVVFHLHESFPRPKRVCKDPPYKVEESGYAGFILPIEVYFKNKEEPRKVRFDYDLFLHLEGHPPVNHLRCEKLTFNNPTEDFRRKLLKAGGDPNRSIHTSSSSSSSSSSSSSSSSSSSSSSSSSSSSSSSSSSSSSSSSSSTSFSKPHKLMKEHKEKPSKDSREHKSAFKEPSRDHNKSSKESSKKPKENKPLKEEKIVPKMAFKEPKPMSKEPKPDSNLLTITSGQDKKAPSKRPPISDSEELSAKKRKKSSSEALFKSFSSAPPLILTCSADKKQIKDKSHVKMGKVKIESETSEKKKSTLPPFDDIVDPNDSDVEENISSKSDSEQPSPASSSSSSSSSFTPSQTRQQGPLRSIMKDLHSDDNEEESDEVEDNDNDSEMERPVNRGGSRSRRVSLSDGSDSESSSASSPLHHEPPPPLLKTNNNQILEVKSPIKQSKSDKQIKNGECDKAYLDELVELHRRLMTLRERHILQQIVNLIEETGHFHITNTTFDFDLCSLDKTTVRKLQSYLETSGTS
ALR inh: human ALR oxidase inhibition via reduced H2O2. 290,000 tested, 3.8% active. purified ALR, DTT oxidation, H2O2 HRP-luminol luminescence. P55789. inhibition, % (no concentration beside the values);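 active = mean and each replicate at 75% or more; inconclusive = only one of the two met; inactive = neither met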;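 note: stock transfer was 7.5 nL into about 7.5 µL; 0% = neutral wells and 100% = wells with inactivated enzyme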
Target sequence (P55789 whole entry, looked up): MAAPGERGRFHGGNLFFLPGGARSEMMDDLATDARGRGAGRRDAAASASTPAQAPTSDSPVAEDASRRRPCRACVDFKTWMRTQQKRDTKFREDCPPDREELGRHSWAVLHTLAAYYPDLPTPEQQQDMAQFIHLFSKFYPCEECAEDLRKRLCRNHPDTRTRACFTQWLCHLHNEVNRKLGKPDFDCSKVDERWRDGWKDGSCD
Beta apoptosis: blocks beta cell apoptosis; INS-1E cytokine-induced death, ATP luminescence, 48 h; percent of positive-control rescue, neutral wells zero; protection from apoptosis, % (test concentration not listed); 300,000 tested, 0.8% active; AID 435005;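 active = all replicates at 75% or more, or half of them and the mean; inconclusive = half reach 75% but not the mean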;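 note: 0% = cytokine-treated negative control wells and 100% = positive control rescue; higher means more ATP so stronger rescue from cytokine killing; wells of about 40 µL received 100 nL stock; the first replicate is given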
rRNA inh HTS OD600: further read-out of rRNA inh HTS, marked with its call; OD600 change, %; measured here: OD600 growth;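 optical density of the mix in the first replicate; 0 = DMSO median and -100 = no signal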
rRNA inh HTS RFP: also measured in rRNA inh HTS; calls as there; RFP signal change, %; measured here: RFP humanized mutant strains;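 first replicate; 0 = DMSO median and -100 = no signal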
* = called active by the depositor. These rows are one share of the data. The share of hits here may be higher or lower than overall.

What do the screens show for `CC1(c2ccccc2)NC(=O)N(CC(=O)NNC(=O)c2ccccc2)C1=O` (stereo not drawn)?
rRNA inh HTS: 2.7; RanGTP-Impb inh: 2.8; FGF22 binding: inactive; Calb FLC: 2.9; T cruzi inh: 2.2; MLL AF4-AF9 inh: -1.7; ALR inh: 3.1; Beta apoptosis: -4.8; rRNA inh HTS OD600: 9.2; rRNA inh HTS RFP: -1.3

Results for COc1ccc(CCNC(=O)COc2cc(C)cc3oc(=O)cc(C)c23)cc1 ?
rRNA inh HTS: 21.7; RanGTP-Impb inh: 0.1; FGF22 binding: inactive; Calb FLC: 3.3; T cruzi inh: 2.4; MLL AF4-AF9 inh: 0.8; ALR inh: 1.6; Beta apoptosis: 3.8; rRNA inh HTS OD600: 8.2; rRNA inh HTS RFP: 3.9

Results for Cc1ccc(C)c2[nH]c(=O)c(CN(Cc3ccco3)S(=O)(=O)c3ccc4c(c3)OCCO4)cc12 ?
RanGTP-Impb inh: 2.5; Calb FLC: -8.0; T cruzi inh: 34.7; ALR inh: -13.8; Beta apoptosis: -3.1

How did O=C(O)c1ccc(-c2ccccn2)s1 do in these assays?
rRNA inh HTS: 9.1; RanGTP-Impb inh: -2.6; FGF22 binding: inactive; Calb FLC: 7.4; T cruzi inh: -15.4; MLL AF4-AF9 inh: -9.1; ALR inh: 0.4; Beta apoptosis: -4.4; rRNA inh HTS OD600: 1.2; rRNA inh HTS RFP: -0.3

How did CC1(C)Cc2c(cnn2-c2ccccc2)C(NC(=O)CCN2CCCCO2)C1 (stereo not drawn) do in these assays?
rRNA inh HTS: 5.7; RanGTP-Impb inh: -4.1; FGF22 binding: inactive; Calb FLC: 0.0; T cruzi inh: -4.3; MLL AF4-AF9 inh: -1.5; ALR inh: 0.2; Beta apoptosis: 0.1; rRNA inh HTS OD600: 4.6; rRNA inh HTS RFP: -0.7

What do the screens show for `COc1ccc(C(=O)NC(C)c2nnc(SCc3ccc(Cl)c(Cl)c3)n2C)cc1` (stereo not drawn)?
RanGTP-Impb inh: 2.9; Calb FLC: -1.2; T cruzi inh: 8.4; ALR inh: -17.7; Beta apoptosis: 1.1

What do the screens show for `Nn1c(SCCOc2ccccc2)nnc1-c1cccnc1`?
rRNA inh HTS: 9.1; RanGTP-Impb inh: -4.3; FGF22 binding: inactive; Calb FLC: -6.7; T cruzi inh: -1.7; MLL AF4-AF9 inh: -3.4; ALR inh: -31.0; Beta apoptosis: 1.0; rRNA inh HTS OD600: 11.7; rRNA inh HTS RFP: -2.3

What do the screens show for `O=C(/C=C/c1ccc2c(c1)OCCO2)c1ccccc1`?
rRNA inh HTS: -0.1; RanGTP-Impb inh: 5.2; FGF22 binding: inactive; Calb FLC: 2.9; T cruzi inh: 2.3; MLL AF4-AF9 inh: 5.9; Beta apoptosis: -2.4; rRNA inh HTS OD600: -4.3; rRNA inh HTS RFP: -2.0

What do the screens show for `CCOC(=O)C1CCCCN1Cc1cccc(F)c1` (stereo not drawn)?
rRNA inh HTS: 17.5; RanGTP-Impb inh: 4.6; FGF22 binding: inactive; Calb FLC: -3.3; T cruzi inh: -14.4; MLL AF4-AF9 inh: -9.6; ALR inh: 2.2; Beta apoptosis: -8.0; rRNA inh HTS OD600: 3.0; rRNA inh HTS RFP: -1.9

Results for N#Cc1cnn(-c2nc3sc4c(c3c(=O)[nH]2)CCCC4)c1N ?
RanGTP-Impb inh: -2.3; Calb FLC: 50.0; T cruzi inh: 53.1; ALR inh: -38.1; Beta apoptosis: 7.0

How did CCCCC(O)(c1ccc(F)cc1)C(CN1CCOCC1)c1ccc(Cl)cc1 (stereo not drawn) do in these assays?
rRNA inh HTS: -8.2; RanGTP-Impb inh: -1.7; FGF22 binding: inactive; Calb FLC: 4.7; T cruzi inh: 10.9; MLL AF4-AF9 inh: 6.7; ALR inh: -8.1; Beta apoptosis: 1.8; rRNA inh HTS OD600: -41.9; rRNA inh HTS RFP: 14.7

What do the screens show for `CC(C)N(C(=O)Cn1c(-c2cccnc2)ccc(C#N)c1=O)C(C)C`?
rRNA inh HTS: -0.8; RanGTP-Impb inh: 3.6; FGF22 binding: inactive; Calb FLC: -6.1; T cruzi inh: -8.7; MLL AF4-AF9 inh: 1.3; ALR inh: 1.4; rRNA inh HTS OD600: 4.7; rRNA inh HTS RFP: -2.2

How did Cn1c(=O)[nH]c(=O)c2c1nc(Sc1ncccn1)n2CCCc1ccccc1 do in these assays?
RanGTP-Impb inh: -2.1; Calb FLC: -9.2; T cruzi inh: 3.4; Beta apoptosis: -5.0

How did COc1ccc(Br)cc1/C=N/NC(=O)c1cccnc1 do in these assays?
rRNA inh HTS: 8.7; RanGTP-Impb inh: 0.1; FGF22 binding: inactive; Calb FLC: -1.9; T cruzi inh: -18.1; MLL AF4-AF9 inh: 1.9; Beta apoptosis: -12.2; rRNA inh HTS OD600: 11.6; rRNA inh HTS RFP: -0.3

How did C[C@H]1CN=C(N(C)C)N1CCCC1CCCCC1 do in these assays?
rRNA inh HTS: 2.3; FGF22 binding: inactive; MLL AF4-AF9 inh: 2.0; Beta apoptosis: -3.8; rRNA inh HTS OD600: 10.3; rRNA inh HTS RFP: 33.0

How did CC1=C(C(=O)Nc2cccc(C(=O)NCc3ccc(F)cc3)c2)SCCO1 do in these assays?
rRNA inh HTS: -0.5; RanGTP-Impb inh: -2.8; FGF22 binding: inactive; Calb FLC: 0.1; T cruzi inh: -26.4; MLL AF4-AF9 inh: -7.3; ALR inh: -9.2; Beta apoptosis: -1.7; rRNA inh HTS OD600: -12.6; rRNA inh HTS RFP: -0.5

How did O=C(Cc1cccs1)NCC1CCCO1 (stereo not drawn) do in these assays?
rRNA inh HTS: 5.9; RanGTP-Impb inh: -1.5; FGF22 binding: inactive; Calb FLC: 3.7; T cruzi inh: -11.9; MLL AF4-AF9 inh: 6.4; ALR inh: -12.0; Beta apoptosis: -1.5; rRNA inh HTS OD600: 6.7; rRNA inh HTS RFP: -0.8

How did O=C(CN(C(=O)CNS(=O)(=O)c1ccc(F)cc1)c1ccccc1F)NCc1ccco1 do in these assays?
rRNA inh HTS: 6.1; RanGTP-Impb inh: 3.0; Calb FLC: 0.8; T cruzi inh: 1.0; MLL AF4-AF9 inh: -1.6; ALR inh: -6.0; Beta apoptosis: 1.7; rRNA inh HTS OD600: -1.5; rRNA inh HTS RFP: 1.1

Results for CCC(C)NC(=O)c1cn(CC)c2ccc(S(=O)(=O)N3CCCCCC3)cc2c1=O (stereo not drawn) ?
rRNA inh HTS: 3.7; RanGTP-Impb inh: 23.0; FGF22 binding: inactive; Calb FLC: 4.9; T cruzi inh: 8.0; MLL AF4-AF9 inh: -3.0; ALR inh: -0.5; Beta apoptosis: 6.8; rRNA inh HTS OD600: 7.6; rRNA inh HTS RFP: -1.2

What do the screens show for `Cc1ccc(OCc2cc(C(=O)N3CC4C[C@@H]5CC3C[C@H](C4)C5)no2)cc1C`?
rRNA inh HTS: 9.0; RanGTP-Impb inh: 1.8; FGF22 binding: inactive; Calb FLC: -0.5; T cruzi inh: 23.5; MLL AF4-AF9 inh: -1.7; ALR inh: -14.9; Beta apoptosis: -1.5; rRNA inh HTS OD600: 18.7; rRNA inh HTS RFP: 1.2

How did Cc1cc(C)c(N2CCN(S(=O)(=O)N3CCCCCC3)CC2)c(C)c1 do in these assays?
RanGTP-Impb inh: 11.2; Calb FLC: 3.9; T cruzi inh: 33.9; ALR inh: 10.6; Beta apoptosis: 58.8

Results for CC1=CCC2C(=O)N(c3ccc4ccccc4n3)C(=O)C2C1 (stereo not drawn) ?
RanGTP-Impb inh: inconclusive; Calb FLC: 2.1; T cruzi inh: -3.0; ALR inh: -9.3; Beta apoptosis: -2.4

What do the screens show for `COc1ccc(NC2CCCN(C(=O)c3csc(C(C)C)n3)C2)cc1OC` (stereo not drawn)?
rRNA inh HTS: 14.2; RanGTP-Impb inh: 0.0; FGF22 binding: inactive; Calb FLC: -1.1; T cruzi inh: 11.0; MLL AF4-AF9 inh: 1.1; ALR inh: 98.8*; Beta apoptosis: -4.9; rRNA inh HTS OD600: 17.1; rRNA inh HTS RFP: 5.0

How did CC(=O)c1ccc(-c2cccc(-c3nc4ccccn4c3NC3CCCCC3)c2)cc1 do in these assays?
rRNA inh HTS: -11.1; RanGTP-Impb inh: 1.5; FGF22 binding: inactive; Calb FLC: 18.7; T cruzi inh: 6.4; MLL AF4-AF9 inh: 9.5; Beta apoptosis: 0.9; rRNA inh HTS OD600: 6.4; rRNA inh HTS RFP: 33.9

What do the screens show for `O=C1c2ccccc2C(=O)N1Cc1cc(-c2ccccc2)no1`?
RanGTP-Impb inh: -1.5; Calb FLC: -2.0; T cruzi inh: -17.5; ALR inh: -3.7; Beta apoptosis: -6.4

What do the screens show for `Oc1cc2c(cc1CN1CCN(c3cccc(C(F)(F)F)c3)CC1)CCC2`?
RanGTP-Impb inh: 1.7; Calb FLC: 0.3; T cruzi inh: 45.5; ALR inh: -10.4; Beta apoptosis: -4.0

How did Clc1ccc(OCCn2ccnc2)c(Br)c1 do in these assays?
RanGTP-Impb inh: -3.0; Calb FLC: -1.5; T cruzi inh: -10.4; Beta apoptosis: -1.5

What do the screens show for `CC(C)Cc1ccc(C(C)C(=O)Nc2ccccc2O)cc1` (stereo not drawn)?
rRNA inh HTS: -12.2; RanGTP-Impb inh: 4.9; FGF22 binding: inactive; Calb FLC: -2.2; T cruzi inh: -2.1; MLL AF4-AF9 inh: -10.3; ALR inh: 1.2; Beta apoptosis: 60.9; rRNA inh HTS OD600: -12.9; rRNA inh HTS RFP: -15.9

How did Cc1ccc(S(=O)(=O)N2CCC(C(=O)N3CCC(C(=O)NCc4cccnc4)CC3)CC2)cc1 do in these assays?
rRNA inh HTS: 4.8; RanGTP-Impb inh: -5.2; FGF22 binding: inactive; Calb FLC: -21.4; T cruzi inh: -11.2; MLL AF4-AF9 inh: 3.1; ALR inh: 6.3; Beta apoptosis: -3.3; rRNA inh HTS OD600: 4.1; rRNA inh HTS RFP: 7.3

What do the screens show for `COCCC(=O)N1CCC(n2nccc2NC(=O)c2ccccc2C)CC1`?
rRNA inh HTS: 2.2; RanGTP-Impb inh: 1.1; FGF22 binding: inactive; Calb FLC: 20.4; T cruzi inh: -15.3; MLL AF4-AF9 inh: -4.3; ALR inh: -6.4; Beta apoptosis: -0.4; rRNA inh HTS OD600: 8.8; rRNA inh HTS RFP: -1.7

How did COc1cc(OC)c(NC(=O)c2ccc3c(SCC(=O)O)c4c(nc3c2)CCCC4)cc1Cl do in these assays?
rRNA inh HTS: 13.4; RanGTP-Impb inh: 0.7; Calb FLC: 40.5; T cruzi inh: 23.8; MLL AF4-AF9 inh: 4.1; ALR inh: 4.4; Beta apoptosis: -7.3; rRNA inh HTS OD600: 5.4; rRNA inh HTS RFP: -2.5

What do the screens show for `Cc1ccc(S(=O)(=O)N2CCN(C(=O)C3CCCO3)CC2)cc1` (stereo not drawn)?
rRNA inh HTS: -5.8; RanGTP-Impb inh: inconclusive; FGF22 binding: inactive; Calb FLC: -11.2; T cruzi inh: -15.5; MLL AF4-AF9 inh: -15.2; ALR inh: 5.1; Beta apoptosis: -6.7; rRNA inh HTS OD600: 2.2; rRNA inh HTS RFP: -3.8

What do the screens show for `CCCCN(S(=O)(=O)c1ccccc1)S(=O)(=O)c1ccccc1`?
rRNA inh HTS: -16.9; RanGTP-Impb inh: 1.9; FGF22 binding: inactive; Calb FLC: -0.1; T cruzi inh: 22.4; MLL AF4-AF9 inh: 0.4; ALR inh: 5.0; Beta apoptosis: -1.0; rRNA inh HTS OD600: -35.4; rRNA inh HTS RFP: -2.4
